High-throughput results from PubChem BioAssay.
Vaccinia pol inh: inhibitors of vaccinia virus processive DNA synthesis (E9 polymerase); AID 493162; normalized absorbance, % (test concentration not listed); in vitro processive DNA synthesis, absorbance read-out; hits give low values; some inactives read as strong as hits; 0.94% of 46,000 active;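 active = replicate mean up to 90% and picked by the depositor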;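 also: 100% = median of the test wells of a plate; 100 nL library stock went into each well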
An asterisk follows results filed as active.

SMILES	Vaccinia pol inh
O=C(CSC1=NC(=O)C(Cc2ccccc2)C(=O)N1)NCc1ccccc1 (centres undefined)	97
CN(Cc1ccccc1)C(=O)CN(C)S(=O)(=O)c1ccc2c(c1)C(C)(C)C(=O)N2C	102
CC(=O)n1c(=O)sc2ccccc21	72
COc1ccc2[nH]c3c(c2c1)CCNC3C1CC=C(C)CC1 (centres undefined)	101
O=C(NCc1nc2ccccc2n1Cc1ccccc1)c1ccco1	94
O=C(Nc1ccc(O)cc1)c1c(O)c2ccccc2[nH]c1=O	90
O=S(=O)(Nc1ccc2ccccc2c1)c1cccs1	95
CC(Oc1ccccc1)C(=O)NCCSc1c[nH]c2ccccc12 (centres undefined)	98
O=C(NC1CCCCCC1)c1ccc2c(c1)OCO2	99
CC(C)(C)c1cc(C(=O)NCc2ccc(C#N)cc2)n(Cc2ccccc2)n1	112
O=C(/C=C/c1ccccc1)OCC1COc2ccccc2O1 (centres undefined)	100
FC(F)(F)c1ccccc1-c1ncc(-c2ccccc2)o1	100
Cc1sc2c(c1C)C(=O)NC(c1cccc(O)c1)N2 (centres undefined)	100
CCOC(=O)c1c(C)oc2c1c1c(c3ccccc32)OCN(C2CCCC2)C1	98
COC(=O)CSc1nc(C)nc2c1oc1ccccc12	100
CSc1nc2ccccc2n1CN(C)Cc1ccccc1	100
Cc1nc2c(c(C)nn2C)c(C)c1CCC(=O)N1CCC(C)CC1	101
Cc1ccn2cc(-c3ccc(F)cc3)nc2c1	98
N#Cc1ccc(OCC(=O)NCCCc2ccccc2)cc1	101
Cc1cc(Nc2cccc(C(F)(F)F)c2)nc2ccc(NC(=O)C3COc4ccccc4O3)cc12 (centres undefined)	102
O=C(O)C1CCN(S(=O)(=O)c2cccs2)CC1	84
C=C1c2cc(CC)ccc2NC(=O)N1c1ccccc1	100
Cc1ccc(-c2cc3nc(-c4ccccc4)cc(N)n3n2)cc1	102
COc1ccc(C=Nc2ccccc2)cc1	101
COc1ccc2c(c1)C1C=CCC1C(c1cc3c(cc1Br)OCO3)N2 (centres undefined)	93
Cc1cccc(N2CCN(CCNC(=O)c3ccc4nc(N5CCOCC5)sc4c3)CC2)c1C	85
Cc1nn(-c2ccccc2)nc1CNC(=O)c1cc(F)cc2c1OCOC2	102
CCN1C(=O)N/C(=C/c2ccc(Sc3ccc(C)cc3)o2)C1=O	100
c1cnc2nc(-c3ccc4c(c3)OCCO4)cn2c1	104
Clc1ccc(CN2COc3c(cc(Cl)c4cccnc34)C2)cc1	86

Reprinted at random: 6 records from the list, in no set order.
SMILES	Vaccinia pol inh
C=C1c2cc(CC)ccc2NC(=O)N1c1ccccc1	100
O=C(NCc1nc2ccccc2n1Cc1ccccc1)c1ccco1	94
O=S(=O)(Nc1ccc2ccccc2c1)c1cccs1	95
Clc1ccc(CN2COc3c(cc(Cl)c4cccnc34)C2)cc1	86
Cc1cc(Nc2cccc(C(F)(F)F)c2)nc2ccc(NC(=O)C3COc4ccccc4O3)cc12 (centres undefined)	102
Cc1ccc(-c2cc3nc(-c4ccccc4)cc(N)n3n2)cc1	102

The listing continues.
SMILES	Vaccinia pol inh
O=C(Nc1ccc2[nH]ccc2c1)c1ccc(F)cc1	91
Fc1ccc(CSc2nnc(SCc3ccccc3)s2)cc1	102
O=C(NN1CCOCC1)c1cccc(COc2cccc(Br)c2)c1	94
CCSc1nnc2n(-c3ccccc3)c3ccccc3n12	82
O=C(CC12CC3CC(CC(Br)(C3)C1)C2)NCC1CCCO1 (centres undefined)	98
Cc1ccc(-c2nn(-c3ccccc3)cc2CSC(=N)N)cc1	94
O=C1/C(=C/c2cccc3c2OCO3)CCC/C1=C\c1cccc2c1OCO2	101
CCCC(=O)Nc1ccccc1-c1nc2ccccc2[nH]1	100
CC(C)(C)NC(=O)Nc1ccc(Cl)cc1	92
COc1ccc(OCC(O)CNC(=O)c2ccccc2C(=O)O)cc1 (centres undefined)	100
CCN(CC)C(=O)Nc1ccc(OC)cc1	101
O=C(Nc1ccc(-c2nc3ccccc3[nH]2)cc1)C1CC1	99
O=C1OCCC1Sc1cccc2cccnc12 (centres undefined)	97
CCC(=O)c1c(OCC(N)=O)ccc2c(C)cc(=O)oc12	90
COC(=O)c1ccccc1OCC#N	96
CCc1nn(CC(=O)N(C)C2CCCCC2)c(=O)c2cc3cc(C)ccc3n12	82
CCOc1ccc(-n2c(=O)[nH]cc(C(=O)N3CCCc4ccccc43)c2=O)cc1	103
Cn1c(=O)c2c(ncn2CC(O)COc2ccccc2)n(C)c1=O (centres undefined)	90
C=C(C)CN1c2ccccc2Sc2ccccc21	100
O=C1CC(Nc2ccc(N3CCOCC3)cc2)C(=O)N1C1CCCCC1 (centres undefined)	108
CC1CCCC(C)N1C(=O)COC(=O)c1cccnc1Cl (centres undefined)	96
COc1cc2ccccc2cc1C(=O)Nc1ccc(F)cc1F	99
CC(=O)Nc1ccccc1N	99
CN(C)c1ccc(NC(=O)COc2cccc3ccccc23)cc1	104
CCc1nnc2c3c(-c4ccc(F)cc4)c(C)sc3ncn12	98
C[n+]1ccc(/C=C/c2ccc3c(c2)OCO3)c2ccccc21	60*
O=C1/C(=C/c2ccccc2Br)Cc2ccccc21	96
CCCNC(=O)c1ccc2c(c1)NC(=O)/C(=C/c1ccccc1)S2	95
Cc1cc(C)cc(Oc2coc3c(CN(C)C)c(O)ccc3c2=O)c1	98
Cc1cc(Cc2ccc(C(F)(F)F)cc2)c(=O)[nH]n1	87
O=C(CSc1nnc(-c2ccccc2F)n1C1CC1)Nc1ccccc1	103
CCOC(=O)c1csc(NC(=O)C2CCCCC2)n1	101
Brc1cc(Br)cc(CN2CCSCC2)c1	94
Cc1cc(C)c2c(-n3cccc3)c(C(=O)Oc3ccccc3)sc2n1	100
CN(C(=O)COc1ncnc2ccccc12)C1CCCCC1	102
O=S1(=O)C=CC(NCc2ccccc2)C1 (centres undefined)	97
Cc1ccc(-c2nc3ccc(NCc4cccs4)cc3o2)cc1	103
CCN(CC)C(=O)Oc1ccc(Br)cc1C(=O)Nc1ccc(F)c(Cl)c1	105
Oc1ccc(Cl)c2cccnc12	92
O=C(NCc1ccco1)c1ccc(-c2ccccc2Cl)o1	82
CC(=O)Nc1ccc(-c2nc3ccccc3c(=O)o2)cc1	96
CCSC1=N/C(=C\c2ccccc2)C(=O)N1c1ccc(C)c(Cl)c1	105
O=C(C1=NN(c2ccccc2)C2C(=O)N(c3ccccc3)C(=O)C12)c1ccccc1 (centres undefined)	95
CCCC1CCC(C(=O)O)CC1 (centres undefined)	100
O=C(O)CCc1ccc(-c2ccccc2)n1-c1ccc(Cl)cc1	100
NC(=O)c1c(NC(=O)c2cc3ccccc3o2)sc2c1CCC2	99
Cc1ccc2c(c1)N(C(=O)N1CCC(C(=O)O)CC1)CC(C)O2 (centres undefined)	94
CCCNC(=O)Cn1cnc2sc(C(=O)NCCCN3CCOCC3)c(C)c2c1=O	100
O=C(CSc1nc2c(sc3ccccc32)c(=O)n1CC1CCCO1)c1ccccc1 (centres undefined)	101
O=C(Nc1ccccc1)c1ccccc1	99
Cc1ccc(CSc2n[nH]c(-c3ccc(C(C)(C)C)cc3)n2)cc1	98
CC(=O)N=C1c2ccccc2CN1c1ccc(C#N)cc1	103
Cc1ccc(/C(COc2ccccc2O)=N\O)cc1	102
Fc1ccccc1Nc1ccc2ccccc2n1	92
COc1ccc(S(=O)(=O)NC(C)C)cc1	100
NC(C(=O)O)C(O)c1ccccc1 (centres undefined)	98
NC1(N)OC(CN2C(=O)c3ccccc3C2=O)CS1 (centres undefined)	100
Cc1cc(C)c(-c2nnc(NC(=O)c3cccs3)s2)c(C)c1	102
COc1ccc(C)cc1NS(=O)(=O)c1cccs1	101
Cc1cccc(NC(=S)N(CCN2CCCCCC2)Cc2cccs2)c1	112

(more compounds)
SMILES	Vaccinia pol inh
CC(C)(C)c1ccc(CCC2OCC(CN3CCOCC3)O2)cc1 (centres undefined)	101
C=CCN=C1CC(C)(C)CC(=O)/C1=C(\O)CCC(=O)OC	100
CCOC(=O)c1c(C(=O)OCC)c(C)n(CCc2c[nH]c3ccccc23)c1C	101
O=C(COCc1cc(-c2ccc(F)cc2)on1)N1CCOCC1	62
Cc1cccc(N2CCN(CC(O)CN3C(=O)c4ccccc4C3=O)CC2)c1 (centres undefined)	100
Cn1cc(C(=O)NC2CCCCCC2)c(=O)c2cc(S(=O)(=O)N3CCCCCC3)ccc21	101
CCCCC[C@@H](/C=C/C=C\CCCCCCCC(=O)O)OO	92
CC(c1ccccc1)C1NC(C(=O)O)CS1 (centres undefined)	98
COc1cccc(NC(=O)Nc2cc(C(F)(F)F)ccc2N2CCCC2)c1	100
COc1c2c(nc3occc13)C(CC=C(C)C)(OC)C(=O)C=C2 (centres undefined)	90
COc1cccc(C(=O)NCCc2cc3c(C)ccc(C)c3[nH]c2=O)c1OC	102
CCCNC(=O)c1ccc(CS(=O)(=O)c2ccc(OC)cc2)o1	107
Cc1ccccc1NS(=O)(=O)c1ccc2[nH]cc(C(=O)N(C)Cc3ccccc3)c(=O)c2c1	99
COC(=O)c1cnc2sc3ccccc3n2c1=O	111
COc1cccc([C@@H]2[C@@H](c3ccc(OC)c(F)c3)N3C=Cc4ccccc4[C@@H]3C2(C#N)C#N)c1	99
COC(=O)Cc1nc(NC(=O)C2CCC2C(=O)O)sc1C (centres undefined)	111
CC(=O)N1CC(=O)Nc2ccc(C)cc2C1c1ccccc1 (centres undefined)	99
CC1CCCCN1C(=O)CSCC(=O)Nc1nc(-c2cccs2)cs1 (centres undefined)	101
O=C(Cn1cnc2ccccc2c1=O)OC1CCCCC1	95
CCC(C)Sc1nc2c([nH]c3ccccc32)c(=O)n1-c1ccccc1 (centres undefined)	101
Cc1cc(C)c(C#N)c(SCSc2ccccc2)n1	104
COc1ccccc1-c1[nH]ncc1CNCc1ccccc1C	112
CCN(CC)c1ccc(Nc2cc(C)c(C#N)c3nc4ccccc4n23)cc1	101
CC1(C)CN(c2ccc(C(=O)c3ccccc3)cc2)C1=O	105
FC(F)(F)c1cccc(N2CCN(C3=Cc4ccccc4C3)CC2)c1	107
Cc1cc2ccccc2nc1-c1ccccc1	96
c1ccc(-n2cnc3cc(NCc4ccco4)ccc32)cc1	95
Cc1ccc(S(=O)(=O)N2CC(=O)c3ccccc3-c3ccccc32)cc1	100
CSc1nnc(-c2ccc(C(C)(C)C)cc2)n1Cc1ccco1	100
NCCc1cc(O)c(O)cc1O	99

An excerpt from above in order of molecular weight, smallest number first.
SMILES	Vaccinia pol inh
NCCc1cc(O)c(O)cc1O	99
C=CCN=C1CC(C)(C)CC(=O)/C1=C(\O)CCC(=O)OC	100
CC(=O)N1CC(=O)Nc2ccc(C)cc2C1c1ccccc1 (centres undefined)	99
COc1ccccc1-c1[nH]ncc1CNCc1ccccc1C	112
CSc1nnc(-c2ccc(C(C)(C)C)cc2)n1Cc1ccco1	100
CCN(CC)c1ccc(Nc2cc(C)c(C#N)c3nc4ccccc4n23)cc1	101
COc1cccc([C@@H]2[C@@H](c3ccc(OC)c(F)c3)N3C=Cc4ccccc4[C@@H]3C2(C#N)C#N)c1	99
Cn1cc(C(=O)NC2CCCCCC2)c(=O)c2cc(S(=O)(=O)N3CCCCCC3)ccc21	101

Next compounds.
SMILES	Vaccinia pol inh
O=C(Cc1ccc(-c2ccccc2)cc1)OCC(=O)N1CCCCC1	97
Cc1nc2cccc(C(=O)N3CCN(c4ccccc4)CC3)c2o1	100
CCNC(=O)n1nccc1C(C)Oc1ccccc1 (centres undefined)	106
N#CC(=C1CCCCC1)c1nc2ccccc2s1	101
O=C(Cc1ccccc1)Nc1ccccc1C(F)(F)F	101
CC(=O)NC(NCCC12CC3CC(CC(C3)C1)C2)(C(F)(F)F)C(F)(F)F	100
O=C(Cc1nc2ccccc2[nH]1)NCc1ccc(Cl)cc1	98
O=C(CC1(C(F)(F)F)NCCN1)c1ccco1	99
CCN(CC)c1ccc(NC(C)C(=O)Nc2ccc(C)cc2)cc1 (centres undefined)	100
C(=N\n1cnnc1)/c1nc2ccccc2[nH]1	103
O=C(NC1CCCCNC1=O)c1cnn(-c2ccccc2)c1C(F)(F)F (centres undefined)	103
COc1ccc(-c2noc(CC(=O)NCCCN3C(C)CCCC3C)n2)cc1 (centres undefined)	101
CCC(=O)Nc1cc2ccccc2cc1NC(=O)CC	100
O=C(CSCC(=O)N1CCOCC1)Nc1nc(-c2ccccc2)cs1	101
CC1=C(C#N)/C(=C/Nc2cccc(Cl)c2)CC(=O)N1	90
c1ccc(Oc2nc(Oc3ccccc3)nc(Oc3ccccc3)n2)cc1	106
CC(=O)N(c1ccc(C(F)(F)F)cc1)S(=O)(=O)c1ccc(N2C(=O)CCC2=O)cc1	102
Cn1c(-c2ccccc2O)[n+](C)c2ccccc21	103
COc1ccc(CCC(=O)NCCc2cn3ccccc3n2)cc1	90
O=C(CC1COc2ccccc2O1)Nc1cccc(C(F)(F)F)c1 (centres undefined)	100
O=c1sc(N2CCN(c3ccc(Cl)cc3)CC2)nc2ccsc12	101
CCOc1ccc(NC(=O)CSc2nccn2-c2ccccc2)cc1	102
O=C(CSc1ncccc1C(=O)O)NCCC1=CCCCC1	85
COc1ccc(-c2nc(CNS(=O)(=O)c3ccccc3F)cs2)cc1	101
O=C(CSc1ncnc2c1oc1ccccc12)Nc1nccs1	101
CC12CC(NC(=S)N1c1ccccc1)c1ccccc1O2 (centres undefined)	103
Cc1ccc(C(=O)CSc2nnnn2-c2cccc(C)c2)cc1	98
COc1ccc2nc(Nc3nnc(-c4ccccc4)o3)sc2c1	101
Clc1cccc(Cl)c1CSc1cccs1	103

A portion of the library; count on the stated rates, not on these rows.
